# PABP polyA inh: PABP-poly(A) binding inhibition | P11940 | PABP-poly(A) RNA binding, fluorescence polarization | inhibition, % at 35 µM | 1% of 290,000 active | AID 2014;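 active means 50% or more with normal probe brightness, or confirmed in later tests; inconclusive means above 50% with abnormal brightness, or retests that disagree; inactive means below 50% or failed in later tests; about a fifth of its hits are not listed in these tables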;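 further: calls also rest on retests at 20 µM and on dose response follow-up; controls were probe without protein and protein plus probe with vehicle; some compounds called inactive have numbers as strong as hits; many hits fall short of the cut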
# Target sequence (P11940 whole entry, looked up): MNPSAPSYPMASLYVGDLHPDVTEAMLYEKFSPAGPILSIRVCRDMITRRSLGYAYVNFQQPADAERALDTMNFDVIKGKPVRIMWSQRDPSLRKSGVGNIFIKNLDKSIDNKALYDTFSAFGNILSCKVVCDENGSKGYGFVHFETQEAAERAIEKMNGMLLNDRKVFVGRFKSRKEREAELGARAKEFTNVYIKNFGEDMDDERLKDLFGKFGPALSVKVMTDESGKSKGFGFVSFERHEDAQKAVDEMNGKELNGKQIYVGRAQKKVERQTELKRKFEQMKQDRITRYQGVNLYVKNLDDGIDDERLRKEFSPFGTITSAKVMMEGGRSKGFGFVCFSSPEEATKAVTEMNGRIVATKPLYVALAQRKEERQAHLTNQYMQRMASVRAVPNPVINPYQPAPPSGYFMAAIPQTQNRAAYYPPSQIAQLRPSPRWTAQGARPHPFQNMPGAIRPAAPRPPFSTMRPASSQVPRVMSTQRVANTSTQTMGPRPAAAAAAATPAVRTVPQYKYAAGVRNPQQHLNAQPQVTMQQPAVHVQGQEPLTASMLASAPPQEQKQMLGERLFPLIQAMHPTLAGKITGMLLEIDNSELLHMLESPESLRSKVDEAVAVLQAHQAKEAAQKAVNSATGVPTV
# MT1-MMP act inh: MT1-MMP (human) activation inhibition; AID 651647; HT1080 RFP-PRO-GFP cells, GFP/RFP ratio fluorescence, overnight; percent of plate control window, DMSO zero; P50281; GFP/RFP ratio change, % at 20 µM; 0.061% of 360,000 active;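 active means GFP/RFP ratio change of at least 30% with cell ATP level not reduced by more than half and red fluorescence within 50% of control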; further: strong numbers were not always called active
#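 Material: RFP-PRO-GFP reporter HT1080 cells. Dosing: single-point 20 µM compound, 1% DMSO. Controls: DMSO and RFP-L50D-GFP cell wells. Timing: cells overnight before dosing, compound overnight, 37 °C, 5% CO2. Measure: GFP/RFP fluorescence ratio.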
# eIF4H FP inh: inhibitors of RNA binding by human eIF4H; Q15056; eIF4H fluorescence polarization binding assay; inhibition, % at 35 µM; 0.94% of 290,000 active;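 active means 50% or more with normal probe brightness, or confirmed in later tests; inconclusive means above 50% with abnormal brightness, or retests that disagree; inactive means below 50% or failed in later tests; about a fifth of its hits are not listed in these tables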;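 further: calls also rest on retests at 20 µM and on dose response follow-up; 0% = protein and probe with vehicle and 100% = probe without protein; strong numbers were not always called active; many hits fall short of the cut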
# Rce1 inhib: blocks yeast Ras-converting enzyme | Q03530 | yeast membranes, quenched prenylated peptide cleavage fluorescence | calls only | 0.27% of 290,000 active | AID 2563;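 active means fall in fluorescence gain of 50% or more versus controls, with final raw signal at or below 3038400; inconclusive means same 50% fall but final raw signal above 3038400; inactive means fall in fluorescence gain under 50%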;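 further: plate controls were neutral control wells for no effect and wells lacking membranes for full effect; tested at 10 µM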
# HIV Env fusion: blocks HIV Env-driven cell-cell fusion; HeLa-JRFL Env/CEM21 cell fusion, luciferase; 1.1% of 360,000 active; inhibition, % at 12.3 µM; AID 651610;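 active means mean replicate inhibition score of at least 50 and every replicate individually at or above 50; inconclusive means only one of the two criteria met; inactive means mean below 50 and not all replicates reaching 50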;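 further: 0% = plate neutral controls and 100% = maraviroc near 300 nM; one replicate is shown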
# CSC inhib: blocks cancer stem cells; inhibition, % at 7.5 µM; 1.1% of 300,000 active; cancer stem cell-like cells viability, luminescence;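 active means mean at 75% or more and at least half the replicates too; inconclusive means mean and replicates disagree; tested in HMLE shEcad cells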;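 further: 0% = median of negative and 100% = median of positive control wells; the first replicate is given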
# Yeast UUG start: modulators of start codon recognition fidelity in yeast; S. cerevisiae UUG-firefly luciferase reporter, luminescence/redox ratio; activity score, % at 18.7 µM; 0.13% of 350,000 active;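 active means replicate mean at a twofold rise or more, about +100% in these data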;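 further: firefly luciferase made from a UUG start codon reports start codon fidelity; reporter light over untreated wells divided by growth signal over untreated wells; some hits fall short of that in this replicate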
# eIF4H FP inh retest: recorded beside eIF4H FP inh, whose call it bears; inhibition, %; compound at 20 µM; confirmation average;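 mean of two retest wells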
# PABP polyA inh retest: second read-out of PABP polyA inh, no call of its own (marks repeat the call); inhibition, %; compound at 20 µM; confirmation repeats;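 mean of two retest wells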
# MT1-MMP act inh RFP: second read-out of MT1-MMP act inh, no call of its own (marks repeat the call); RFP signal change, %; measured here: RFP expression control read;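 0 = vehicle wells; hits needed this value within 50% of zero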
# An asterisk follows results filed as active; i = inactive; u = inconclusive; x = not tested or not shown.
SMILES,PABP polyA inh,MT1-MMP act inh,MT1-MMP act inh RFP,eIF4H FP inh,Rce1 inhib,HIV Env fusion,CSC inhib,Yeast UUG start,others
Cc1ccc(CNC(=O)C2CCN(c3nnc(N4CCCC4=O)s3)CC2)cc1,6,5,0,-10,i,-83,6,0,
COc1cccc(NC(=O)CSc2nnc(Cc3ccc(OC)c(OC)c3)o2)c1,14,0,1,4,i,11,-6,-6,
Cc1cccc(NC(=O)CSc2nc(N)c(NC(=O)c3cccs3)c(=O)[nH]2)c1,1,-2,2,-5,i,-14,6,-1,
O=C(Nc1ccc(F)cc1)Nc1nnc(-c2ccco2)s1,7,2,0,7,i,-19,-5,x,
CC(O)CNc1nc2c(c(=O)n(C)c(=O)n2C)n1C/C=C/c1ccccc1 (stereo unspecified),-2,-5,-2,-7,x,x,4,x,
CCOC(=O)NCc1ccc(S(=O)(=O)Nc2ccccc2C)cc1,0,2,-4,17,i,20,-4,12,
Brc1ccc(-c2nn[nH]n2)cc1,-4,1,4,0,x,-12,-1,-22,
O=C(O)c1cc2c(o1)CCC/C2=N\O,33,9,4,-4,i,x,1,1,
CC(C)(C)NC(=O)Nc1cccc(Cl)c1Cl,6,2,4,-5,x,-3,-4,x,
NS(=O)(=O)c1ccc(NC(=O)/C=C/c2ccccc2[N+](=O)[O-])cc1,6,0,5,-4,x,8,0,x,
COc1ccc(C(=O)Nc2ccc(SC(F)F)cc2)cc1,-8,7,-3,0,i,-31,x,x,
C[C@H](NC(=O)c1nc[nH]c1C(=O)NC[C@@H](C)O)c1ccccc1,x,3,6,x,x,5,x,7,
COc1cc(OC)cc(-n2nnnc2SCC(=O)NCc2cccs2)c1,-9,2,3,8,i,-11,x,x,
Cc1cc(C(=O)OCC(=O)NC2CCS(=O)(=O)C2)c(C)n1-c1ccccc1 (stereo unspecified),49,-3,-4,-3,i,24,-21,-6,
CC1CCc2nc(NC(=O)C3COc4ccccc4O3)sc2C1 (stereo unspecified),-7,1,-10,-3,i,-125,18,-86,
COC(=O)C1=C(CSc2nncn2C)NC(=O)NC1c1cc(C)ccc1C (stereo unspecified),-8,0,7,10,i,x,x,-14,
CCC(C)OC(=O)c1[nH]c2c(c1C)C(=O)CC(c1ccc(N(C)C)cc1)C2 (stereo unspecified),2,-3,-24,-2,i,u,26,-3,
O=C(c1cc2ccccc2o1)N1CCC(N2CCC(C(=O)N3CCCC3)CC2)CC1,-4,1,-5,-3,i,20,-7,x,
NC(=O)c1ccc(-n2nnnc2SCc2ccccc2)cc1,-7,4,-10,1,i,x,-2,-14,
Cc1cc2oc(C(=O)N(Cc3ccco3)C3CCS(=O)(=O)C3)cc(=O)c2cc1Cl (stereo unspecified),1,0,0,-3,i,4,-9,10,
CCc1ccc(CN(C)C(=O)c2cc(S(=O)(=O)N3CCN(CC)CC3)ccc2Cl)cc1,x,2,-5,x,i,12,-3,x,
O=S(=O)(NCCc1cn2ccccc2n1)c1cccs1,-2,2,1,-1,i,-38,-4,-14,
O=C(CSc1nnnn1-c1ccc(Cl)cc1)Nc1cccnc1Cl,-5,5,-5,-2,i,18,x,-20,
Cc1ccc(CNC(=O)CSc2c3c(nc4ccc(Cl)cc24)CCCC3)o1,22,-13,-5,2,i,7,7,x,
COc1ccc(-c2cc(C(F)(F)F)c(C#N)c(SCC(=O)Nc3ccc(C)cc3)n2)cc1,1,-12,-6,4,i,x,-6,-1,

# Other entries
SMILES,PABP polyA inh,MT1-MMP act inh,MT1-MMP act inh RFP,eIF4H FP inh,Rce1 inhib,HIV Env fusion,CSC inhib,Yeast UUG start,others
CN(CC(=O)Nc1ccccc1Cl)C(=O)CN1C(=O)C2CCCCC2C1=O (stereo unspecified),x,0,5,x,i,x,3,-9,
COc1cccc(N2CCN(C(=O)c3ccc(N4C(=O)NC5CC4(C)Oc4ccccc45)cc3)CC2)c1 (stereo unspecified),6,4,2,1,i,x,-6,0,
CCOC(=O)[C@@H]1[C@H]2COc3cc(OC)ccc3[C@H]2N2C(=O)N(c3cccc(F)c3)C(=O)[C@]12C,x,-4,-2,x,x,-136,-21,0,
COc1ccc(OC)c(-c2nnc(SCC(=O)N3CCOCC3)o2)c1,6,0,0,6,i,x,-10,-6,
CC1CCN(C(=O)COC(=O)C2CCN(S(=O)(=O)c3ccc4c(c3)OCCO4)CC2)CC1,x,-6,0,x,i,-36,-3,-9,
O=C(Cc1cccs1)N1CCN(c2cccc(Cl)c2)CC1,-8,-2,-2,2,i,-13,-2,x,
COc1cc(C(c2c(C)[nH][nH]c2=O)c2c(C)[nH][nH]c2=O)ccc1OC(C)C,3,5,4,-13,i,4,x,-37,
C=CC[n+]1c(-c2ccc(OCC)cc2)csc1NNC(=O)Nc1ccccc1,-19,-26,-15,-2,i,61*,u,x,
O=C(O)CCC(=O)NNc1ncnc2ccccc12,5,-4,3,-5,i,-16,-10,x,
COc1ccc(NC(=O)C2c3cc(OC)c(OC)cc3C(=O)N(C)C2c2cccnc2)cc1OC (stereo unspecified),1,2,7,-1,i,-35,-11,-9,
S=C(NCC1CCCO1)Nc1cccc(Cl)c1 (stereo unspecified),-2,-1,-2,2,i,-10,-8,x,
CC(=O)Nc1cc(-c2ccccc2)cn2c(-c3ccc(F)cc3)cnc12,x,-4,-1,x,x,4,x,7,
Cc1nn(-c2ccccc2)c2sc(C(=O)N(CC(=O)NC3CCCC3)Cc3ccco3)cc12,2,-15,-20,-2,i,x,x,-23,
O=c1[nH]c(CN2CCCC2)nc2sc3c(c12)CCC3,2,-5,-1,12,x,4,-2,x,
CCN1C(=O)C(CC(=O)NC2CCCCC2)N(CC)C1=O (stereo unspecified),2,1,4,-11,i,1,-10,x,
COc1cccc(/C=C/C(=O)NCc2cn3cc(Cl)ccc3n2)c1,15,x,x,3,i,3,-10,-11,
COCCN(Cc1ccccc1)C(=O)c1cccc(S(=O)(=O)N2CCN(c3ccc(F)cc3)CC2)c1,x,2,-4,x,i,-3,8,x,
Cc1sc2nc(CSc3ccccc3)nc(N3CCC(C(N)=O)CC3)c2c1C,6,-5,-10,-3,i,13,20,x,
CNC(=S)NNC(=O)c1oc2nc(-c3ccccc3)cc(-c3ccco3)c2c1N,u,-21,-4,u,i,9,11,x,
CCCCCCN1CCN(C2CN(Cc3ccc(F)cc3)S(=O)(=O)C2)CC1 (stereo unspecified),x,5,7,x,x,6,x,-9,
O=C(CCSc1nc(-c2ccc3c(c2)OCO3)cc(C(F)(F)F)n1)NCc1ccco1,1,-2,0,9,i,-7,5,-7,
Cc1ccc(S(=O)(=O)NCCC(=O)NNC(=O)COc2ccccc2Cl)cc1C,x,2,0,x,x,x,3,-11,
CC(C)N1C(=O)S/C(=C/c2ccccc2OCc2ccc(C(=O)O)cc2)C1=O,17,-11,0,2,i,-3,-4,-12,
CCOc1ccc(C2CC(=O)NC2=O)cc1 (stereo unspecified),-6,-2,1,-4,i,-9,-11,x,
CCOC(=O)NNC(=O)NCCCCCCNC(=O)NNC(=O)OCC,-6,0,2,3,i,11,-10,-18,

# Other entries
SMILES,PABP polyA inh,MT1-MMP act inh,MT1-MMP act inh RFP,eIF4H FP inh,Rce1 inhib,HIV Env fusion,CSC inhib,Yeast UUG start,others
CC(OC(=O)CCCc1nc2ccccc2s1)C(=O)NC(N)=O (stereo unspecified),-4,4,2,-11,i,-1,-10,x,
O=C(OCc1nnc(-c2ccccc2)o1)c1cc([N+](=O)[O-])ccc1Cl,60,1,-3,0,i,19,-8,-14,eIF4H FP inh retest=15;PABP polyA inh retest=25
CCc1ccc(N2CC(C(=O)Nc3nccs3)CC2=O)cc1 (stereo unspecified),3,0,0,6,i,x,9,-10,
O=C1c2ccccc2C(=O)C1c1ccnc2ccccc12,8,-10,-10,0,i,-353,15,-34,
COc1cc(OC)cc(C(=O)NCc2ccc3c(c2)OCO3)c1,-2,-5,-4,2,i,14,2,-13,
COc1ccc(-c2ccc3c(N)c(C(=O)c4ccc(OC)c(OC)c4)sc3n2)cc1,22,-31,-7,6,i,-192,x,-8,
COc1ccc(-c2c(C)nc3c(-c4ccccn4)cnn3c2N)cc1,-10,7,-5,-7,i,-283,-9,-44,
CNc1nc(-c2ccccc2)nc(-c2ccc(OC)cc2)c1C#N,9,-1,3,-9,i,-11,3,-8,
Cn1cnnc1Sc1cc(N2CCN(S(=O)(=O)c3ccccc3)CC2)ccc1[N+](=O)[O-],-18,1,0,8,i,15,6,x,
Cc1c(C(=O)O)cccc1-n1c(C)cc(/C=N/NC(=O)c2cc3ccccc3o2)c1C,6,0,5,23,i,-59,-1,x,
COc1ccc(-c2c(N)cnc(C(=O)O)c2C)c(OCc2ccccc2)c1OC,x,-1,9,x,x,-9,x,-22,
CN1CCN(C(=O)c2ccccc2NC(=O)COc2ccccc2Cl)CC1,2,-7,0,-9,i,-246,1,-5,
COc1ccc(Cc2nnc(NC(=O)c3ccccc3F)s2)cc1,-11,2,-7,-9,i,-16,6,-16,
Cn1c(SCC(=O)c2ccc3c(c2)OCO3)nnc1C1COc2ccccc2O1 (stereo unspecified),-3,5,-5,-5,i,-99,-9,-15,
CC#CC(=O)N1CCCC(Cc2cccc(OC)c2)(C(=O)OCC)C1 (stereo unspecified),6,3,-1,-5,i,-1,-1,-8,
Cc1csc(NC(=O)Nc2ccc(Cl)cc2)n1,-5,5,-5,1,i,-182,1,-14,
COc1cc(/C=C2\SC(=S)N(CCC(=O)N3CCCCC3)C2=O)cc(OC)c1OC,3,16,-9,-12,i,39,x,-4,
OCCNC(=S)Nc1cccc(Cl)c1Cl,-4,-5,1,-4,i,4,-3,-19,
N#Cc1ccc(C(=O)NC2CCCCCCC2)cc1,7,1,-3,3,i,-40,-10,-9,
COc1cccc(OC)c1C(=O)Nn1c(-c2cccc(C)c2)nc2ccccc2c1=O,-5,-5,3,11,i,-23,-12,x,
O=C1CCC(=O)N1CNc1cccnc1,4,1,-1,11,i,-29,0,-20,
CCc1ccc(NC(=S)N(CCC(C)C)C2CCN(C(C)=O)CC2)cc1,-3,3,0,2,i,-13,-14,-15,
CC(N=C1CC(C)(C)CC(=O)/C1=C(/O)CCCN1C(=O)c2ccccc2C1=O)C(=O)O (stereo unspecified),4,0,2,-8,i,-4,-2,x,
CN1N=C(C(C)(C)C)CSC1=Nc1ccccc1,12,0,0,-7,i,12,-13,x,
O=C(N/N=C/c1cccs1)c1cccc(S(=O)(=O)Nc2ccc(Cl)cc2)c1,-6,-1,3,-3,i,7,-4,x,

# Carrying on:
SMILES,PABP polyA inh,MT1-MMP act inh,MT1-MMP act inh RFP,eIF4H FP inh,Rce1 inhib,HIV Env fusion,CSC inhib,Yeast UUG start,others
Cc1c(OCC(=O)N2CCC(C(=O)O)CC2)ccc2c3c(c(=O)oc12)CCC3,-15,-2,5,-5,i,x,-11,-1,
COc1ccc(CC(=O)Nc2ccc(F)c(F)c2F)cc1S(=O)(=O)N1CCOCC1,x,2,6,x,x,3,x,5,
COc1cc(/C=N/Nc2nc(Nc3ccccc3)nc(N3CCOCC3)n2)ccc1OC(=O)c1ccco1,-3,2,-4,5,i,-12,14,x,
CC(C)CNc1ncnc2c1ncn2[C@H]1CN(Cc2cccs2)C[C@@H](CO)O1,x,3,4,x,x,49,x,-18,
Cc1ccc(S(=O)(=O)c2nnn3c2nc(N2CCCCC2)c2ccccc23)cc1,-5,-5,-4,1,i,6,-6,x,
CC(=O)Nc1ccc(C(=O)N2CCCc3ccccc32)cc1,0,3,-2,-2,i,-16,-5,-4,

# Screens from PubChem.
